Source: PubChem (ICCB-Longwood Screening Facility, Harvard Medical School)
Bm FixLJ act: B. multivorans fixK reporter activation; B. multivorans fixK-promoter GFP reporter, 18 h; active compounds read high; z-score (test concentration not listed); 0.3% of 29,000 active;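 active means replicate mean overnight rise in green fluorescent reporter signal, 3 or more SD over negative controls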;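 further: score is relative to vehicle wells of the plate; 300 nL library stock went into each well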
* marks the source's active call; other numbers are inactive results; & = joins results of further samples.

SMILES	Bm FixLJ act
Cc1ccc(S(=O)(=O)Nc2cccc(-c3cn4cccc(C)c4n3)c2)c(C)c1	0.14
COc1ccc(CNC(=O)c2nnn(CC(=O)Nc3cc(C)cc(C)c3)c2N)cc1	-1.77
O=S(=O)(c1ccc(Cl)cc1)c1nc(-c2cccs2)oc1SCc1ccccc1F	0.25
Cc1cnn(CCC(=O)Nc2ccc(NC(=O)c3ccco3)c(C)c2)c1	-0.2
CCOC(=O)c1ccc(N2C(=O)c3[nH]nc(-c4ccc(C)cc4)c3C2c2cccc(F)c2)cc1 (stereo not drawn)	-1.02
CCOc1ccc(-c2oc3cc(Cl)ccc3c(=O)c2O)cc1OC	-0.23
COc1cccc(CNC(=O)C(NS(=O)(=O)c2cccs2)C(C)C)c1 (stereo not drawn)	-0.54
CCOc1ccc(NCc2cccn2-c2nnc(N3CCC(C(=O)NCc4ccc(C)cc4)CC3)s2)cc1	-0.78
CN1C(=O)COc2ccc(C(=O)NCCc3cnn(C)c3)cc21	-1.83
Cc1ncc(CN(CCO)C(=O)CCc2cccc(Cl)c2)[nH]1	-0.62
Cc1cccc(C(=O)NCCc2nc3ccccc3n2Cc2ccc(Cl)cc2)c1	-0.94
COC(=O)c1ccc(Cn2nnc3sc4c(c3c2=O)CCCC4)cc1	-0.98

Single values from the list.
Cc1ncc(CN(CCO)C(=O)CCc2cccc(Cl)c2)[nH]1 in Bm FixLJ act has -0.62
CCOc1ccc(-c2oc3cc(Cl)ccc3c(=O)c2O)cc1OC in Bm FixLJ act has -0.23
O=S(=O)(c1ccc(Cl)cc1)c1nc(-c2cccs2)oc1SCc1ccccc1F in Bm FixLJ act has 0.25
Cc1cccc(C(=O)NCCc2nc3ccccc3n2Cc2ccc(Cl)cc2)c1 in Bm FixLJ act has -0.94
CCOc1ccc(NCc2cccn2-c2nnc(N3CCC(C(=O)NCc4ccc(C)cc4)CC3)s2)cc1 in Bm FixLJ act has -0.78
CCOC(=O)c1ccc(N2C(=O)c3[nH]nc(-c4ccc(C)cc4)c3C2c2cccc(F)c2)cc1 (stereo not drawn) in Bm FixLJ act has -1.02

Arranged by molecular weight (descending): part of the list above
SMILES	Bm FixLJ act
CCOC(=O)c1ccc(N2C(=O)c3[nH]nc(-c4ccc(C)cc4)c3C2c2cccc(F)c2)cc1 (stereo not drawn)	-1.02
COc1ccc(CNC(=O)c2nnn(CC(=O)Nc3cc(C)cc(C)c3)c2N)cc1	-1.77
Cc1ccc(S(=O)(=O)Nc2cccc(-c3cn4cccc(C)c4n3)c2)c(C)c1	0.14
COc1cccc(CNC(=O)C(NS(=O)(=O)c2cccs2)C(C)C)c1 (stereo not drawn)	-0.54
COC(=O)c1ccc(Cn2nnc3sc4c(c3c2=O)CCCC4)cc1	-0.98

The listing picks up; the three compounds before the break are reprinted first.
SMILES	Bm FixLJ act
Cc1ncc(CN(CCO)C(=O)CCc2cccc(Cl)c2)[nH]1	-0.62
Cc1cccc(C(=O)NCCc2nc3ccccc3n2Cc2ccc(Cl)cc2)c1	-0.94
COC(=O)c1ccc(Cn2nnc3sc4c(c3c2=O)CCCC4)cc1	-0.98
CCOc1ccc(C(=O)Nc2ccc3nc(N(CC)CC)cc(C)c3c2)cc1	-1.55
Cc1ccc2c(CN3CCN(C(=O)c4ccc(F)cc4)CC3)cc(=O)oc2c1	-0.34
CCOc1ccc(CN2CCN(S(=O)(=O)c3ccc(Cl)cc3)CC2)cc1	-0.78
COc1cccc(N2CCN(CCn3cc[nH]c3=O)C(C)C2=O)c1 (stereo not drawn)	-2
Cc1cc(C)c2oc(C(=O)Nc3ccc(S(=O)(=O)N4CCCCCC4)cc3)cc(=O)c2c1	-1.29
CCOc1ccccc1NC(c1nnc(-c2ccccc2)o1)c1ccc(F)cc1Cl (stereo not drawn)	1.29
CCn1c(N)nc2cc(C(=O)N(C)CCCOc3ccc(C)cc3)cnc21	-0.44
COc1cc2c(cc1OC)C1(CCN(C(=O)CCN)CC1)OCC2	-0.9
Cc1nc2nc(NC(=O)c3ccc(C(C)(C)C)cc3)[nH]n2c(=O)c1Cl	-1.37
Cc1cc(C)c(Cn2c(=O)n(CCCCCC(=O)NCc3ccc4c(c3)OCO4)c(=O)c3sccc32)c(C)c1	0.2
CCOc1ccc(NC(=O)CCc2c(C)nc3c(c(C)nn3-c3ccccc3)c2C)cc1	-2.75
Cc1[nH]c(=O)[nH]c(=O)c1C1N2CC3(C(C)C)CN1CC(C(C)C)(C2)C3=O (stereo not drawn)	-1.15
O=C(CCCn1cnnn1)N1CCC(Oc2ccccc2)C1 (stereo not drawn)	-1.14
CCOC(=O)C1CCCN(C(=O)c2nn(-c3ccc(C)cc3)c(=O)c3c2c2ccccc2n3C)C1 (stereo not drawn)	-0.1
COCCN(CCOC)C(=O)c1ccc(-c2ncccc2Cl)cc1	0.44
CCc1ccc(NC(=O)CN2C(=O)CCSc3ccccc32)cc1	0.42
Cc1cc(C)cc(OCCCn2c(CCNC(=O)C3CCCCC3)nc3ccccc32)c1	-0.55
COc1ccc(N(Cc2cc3cccc(C)c3[nH]c2=O)C(=O)c2cccc(Cl)c2)cc1	-1.37
CNC(=O)c1noc(CN2CCOC(CCc3ccccc3)C2)n1 (stereo not drawn)	-1.15
Cn1c(=O)c(=O)n(C)c2cc(N3CCCC3)c(NC(=O)c3ccc(C(C)(C)C)cc3)cc21	-0.81
Cc1ccc(CSc2ncc(Cl)c(C(=O)Nc3nc4ccc(C)cc4s3)n2)cc1	0.2
CCN(CC)CCNC(=O)COc1ccc(OC)cc1	-0.58
COCCN1CC2(CCCN(C(=O)c3nn(C)c(C)c3Cl)C2)CCC1=O (stereo not drawn)	0.65
CCN(Cc1ccccc1)Cc1c(O)ccc2c(=O)c(-c3ccc(Cl)cc3)coc12	-1.59
Cc1ccc(NC(=O)Cn2c(=O)n(Cc3ccco3)c(=O)c3ccccc32)cc1	-1.84
COc1ccc(-c2cc(-c3ccc4c(c3)NC(=O)CO4)nc3c2COc2ccc(F)cc2-3)cc1	0.02
CC(C)c1ocnc1C(=O)N1CCCN(C(=O)Cn2cnnn2)CC1	-0.94
COc1ccc(-n2c(=O)c3sc4ccccc4c3n(Cc3ccccc3)c2=O)cc1	0.74
CCC(OC)C(=O)N1CCC2(CC1)c1nc[nH]c1CCN2C(=O)C1CCC1 (stereo not drawn)	-1.09
COc1ccc(CCn2c(=O)c3cccnc3n(CC(=O)Nc3c(C)cccc3C)c2=O)cc1OC	-1.69
CCC(=O)N1CCCC(c2nnc(CN3CCOCC3)n2C)C1 (stereo not drawn)	-0.36
CCOc1ccc(OCC)c(NC(=O)CCc2c(C)nc3c(c2C)c(=O)n(C)c(=O)n3C)c1	-0.47
Cc1cccc(C(=O)N2CCCC(c3cc(N4CCOCC4)ncn3)C2)c1 (stereo not drawn)	1.12
CCCN(CCC)CCCNC(=O)Cn1ncc2c3ccccc3n(Cc3ccc(F)cc3)c2c1=O	-1.67
O=c1[nH]c2ccc(S(=O)(=O)Nc3cc(Cl)ccc3O)cc2o1	0.92
CC(C)c1ccccc1Oc1c(C(F)(F)F)oc2c(CN3CCN(C)CC3)c(O)ccc2c1=O	-1.69
Cc1noc2nc(C(=O)O)nc(N3CCCCC3)c12	0.36
CC[C@@]1(O)C(=O)OCc2c1cc1n(c2=O)Cc2cc3c(CN(C)C)c(O)ccc3nc2-1	-5.6&-4.88
COc1ccccc1CCN1COc2c(cc3c(C)c(C)c(=O)oc3c2C)C1	0.82
CCOc1ccc(S(=O)(=O)Nc2cc(Cl)ccc2OC)c2cccnc12	1.13
CCc1ccccc1N(C)C(=O)Cn1cnc2sc(C)c(S(=O)(=O)N3CCN(c4ncccn4)CC3)c2c1=O	-0.94
Cc1nccn1CCCC(=O)N(C)Cc1nc(-c2ccccc2)no1	0.31
Cc1ccc(NC(=O)CN(C)S(=O)(=O)c2ccc3c(c2)CCC(=O)N3)c(C)c1	-0.21
CC(=O)Oc1cccc(O)c1	-0.99
COc1cccc(NC(=O)c2cc3c(=O)n(C)c4ccccc4c3n2C)c1	-0.68
CCN1CCN(c2cc(C)c3cc(NC(=O)/C=C/c4ccc(C)cc4)ccc3n2)CC1	-1.87
COc1cc(OC)cc(C(=O)Nc2ccc3oc(-c4ccc(Cl)cc4)nc3c2)c1	-1.87
CCC(CC)Nc1nc(-c2ccncc2)nc2c1CCN(C(C)=O)C2	-2.31
CCc1nn(CC(=O)NCCCc2ccccc2)c(=O)c2cc3ccccc3n12	-1.82
CCOc1ccccc1NC(=O)CCc1c(C)nc2c(c(C)nn2-c2ccccc2)c1C	-5.05
CC(=O)c1cccc(NC(=O)CCc2c(C)nc3c(c(C)nn3-c3ccccc3)c2C)c1	-0.71
CC(Cn1cncn1)C(=O)N1CCCN(CCn2ccnc2)CC1 (stereo not drawn)	-1.33
O=C(NC1CCCCCC1)N1CCCN(C(=O)c2ccco2)CC1	-1.4
CC(C)(C)c1ccc(C(=O)Nc2sc3c(c2C#N)CCC(C(C)(C)C)C3)cc1 (stereo not drawn)	0.08
Cc1ccc(NC(=O)c2c(NC(=O)Cc3ccccc3)sc3c2CCCC3)cc1	1.92
O=C(NCCCc1nc2ccccc2n1Cc1c(F)cccc1Cl)C1CCCCC1	-1.15
COc1ccc(OC)c(-c2nc(Nc3ccccc3C)sc2CC(=O)O)c1	-0.64
CCOC1COCCC1NC(=O)c1ccc(Oc2ccccc2)o1 (stereo not drawn)	-0.77
O=c1[nH]c2cc(Br)ccc2n2cccc12	-2.21
CC(C)c1cccc(OCCn2c(-c3ccc(Cl)cc3)nc3ccccc3c2=O)c1	-0.97
(more compounds)
SMILES	Bm FixLJ act
c1ccc(-c2nc3c(c(NCc4cc5n(n4)CCNC5)n2)CCC3)cc1	1.08
COc1cc(C)c(C)cc1S(=O)(=O)NCCN1CCc2ccccc21	0.13
CCCc1cc(CNC(=O)c2ccc(N3CC(n4cccn4)C3)nc2)on1	-0.83
Cc1cc(C)c(NC(=O)Cn2c(=O)n(-c3cccc(C(F)(F)F)c3)c(=O)c3c(C)c(C)sc32)c(C)c1	-0.44
Cc1ccc2oc(C(=O)Nc3c(C(=O)Nc4ccccc4)oc4ccccc34)cc(=O)c2c1	-1.41
CCOc1cccc2cc(S(=O)(=O)c3ccccc3F)c(=O)oc12	0.16
O=C(Nc1cc2c(cc1C(=O)c1ccccc1Br)OCCO2)c1ccccc1	-0.29
Cc1n[nH]c(C)c1-c1cccc(C(=O)NCc2csc(N(C)C)n2)c1	0.8
COc1ccc(-n2nc3cc(C)c(NC(=O)c4ccc(C)cc4C)cc3n2)cc1Cl	-2.14
CC(C)CCn1c(/C=C/c2ccccc2)nc2ccccc21	-0.69
CCc1ccc(S(=O)(=O)c2nnn3c2nc(NCc2ccccc2)c2cc(Cl)ccc23)cc1	0.93
COc1ccc2oc(-c3cccc(NC(=O)c4cc([N+](=O)[O-])ccc4N4CCOCC4)c3)nc2c1	-1.62
Fc1ccc(N2CCN(c3nc4ccccc4c4nc(-c5ccccc5)nn34)CC2)cc1	-0.9
N#CC1=C(N)N(c2ccc(Cl)cc2)C2=C(C(=O)CCC2)C1c1cc(CN2CCOCC2)cs1 (stereo not drawn)	-2.13
O=C(CCc1cc(Cl)no1)NCCc1noc(C2CCCO2)n1 (stereo not drawn)	-0.41
Cc1c[nH]c(CNC(=O)C(C)c2ccc(Cl)cc2)c(C)c1=O (stereo not drawn)	-0.33
COc1ccc2ccc(OCc3nc(C(=O)N(C)CC4CC4)co3)cc2c1	-2.16
CCc1cccc(-n2c(C)nc3c(cnn3-c3ccc(C)c(C)c3)c2=O)c1	-1.45
Cc1ccccc1N1C(=O)c2cc(S(N)(=O)=O)c(Cl)cc2NC1C (stereo not drawn)	0.1
Nc1ccc(O)c(C(=O)O)c1	-0.78
Cc1ccc(-c2nc3nc(C)cc(N4CCN(c5cccc(C)c5)C(C)C4)n3n2)cc1 (stereo not drawn)	-2.49
Cc1ccc(NS(=O)(=O)c2ccc3c4c(cccc24)C(=O)N3)c(C)c1	0.14
CSc1nn(Cc2ccc(C)cc2)c(N)c1S(=O)(=O)c1ccccc1	-0.65
COC(=O)c1c(NC(=O)CCCOc2ccc(C(C)(C)C)cc2)sc2c1C(C(=O)OC)CC2 (stereo not drawn)	-2.32
CN(C)S(=O)(=O)N(CC(=O)NCCSCc1ccc(Cl)cc1Cl)c1ccccc1	-1.62
COc1ncc(C(=O)N2CCCC(c3[nH]ncc3-c3ccccc3)C2)cn1 (stereo not drawn)	0.38
Cn1c(NCCO)nc2c1c(=O)n(Cc1ccccc1Cl)c(=O)n2C	-1.75
Cc1ccc(N(C)C(=O)Cn2nc(Cc3ccncc3)c3ccccc3c2=O)cc1C	0.27
CCCc1cc(CNS(=O)(=O)c2ccc(S(C)(=O)=O)cc2)on1	-0.31
C=CC[C@@H]1/C=C(\C)C[C@H](C)C[C@H](OC)[C@H]2O[C@@](O)(C(=O)C(=O)N3CCCC[C@H]3C(=O)O[C@H](/C(C)=C/[C@@H]3CC[C@@H](O)[C@H](OC)C3)[C@H](C)[C@@H](O)CC1=O)[C@H](C)C[C@@H]2OC	-1.76
O=C1CC(c2ccccc2)Cc2[nH]c(=O)c(-c3nc(-c4cccc(Cl)c4)cs3)cc21 (stereo not drawn)	0.48
Cc1cc(CC(=O)NCc2csc(-c3ncccn3)n2)on1	-2.16
Cc1ccc(NC(=O)Cc2coc3c(C)c(C)ccc23)cc1Cl	-2.21
CCOc1ccccc1N1CC(c2nc3ccccc3n2CCOc2ccccc2)CC1=O (stereo not drawn)	-0.56
OC(CCN1CCCCC1)(c1ccccc1)C1CC2C=CC1C2 (stereo not drawn)	-0.88
CCOC(=O)c1sc(NC(=O)c2nc(SC)ncc2Cl)c(C(=O)OCC)c1C	0.25
COc1ccc(-n2c(=O)c3sc4ccccc4c3n(CC(=O)NCc3ccccc3)c2=O)cc1	-0.79
CCCCOCc1cc(CN2CCN(c3cccc(Cl)c3)CC2)c(O)c2ncccc12	-1.83
Cc1ccccc1NC(=O)Cn1c(=O)n(CCC(=O)N2CCc3ccccc3C2)c(=O)c2ccccc21	-0.86
O=C(CN(c1ccc(Cl)c(C(F)(F)F)c1)S(=O)(=O)c1ccccc1)Nc1cccnc1	-0.64
CCOC(=O)c1ccc(-n2c(CCC(=O)O)ccc2-c2ccccc2)cc1O	-2.84
CC1(C(=O)NC2CCCCC2)Cc2ccccc2C(=O)N1Cc1ccc(Cl)cc1 (stereo not drawn)	-1.42
Cc1ncn(C)c1C(=O)NC(Cn1cccn1)c1ccccc1 (stereo not drawn)	-1.69

An excerpt; rates above refer to the full screens.
